# BJeLR viability: MLPCN primary cell-based screen for lethality selective to Ras in HRASV12 cells; BJeLR (HRASV12) viability, CellTiter-Glo ATP luminescence, 48 h; reference of the scale not given here; inhibition, % (test concentration not listed); actives 0.17% (n = 300,000); AID 1554, 2009;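 active = replicate mean above 50%; inconclusive = above 50% but judged a plate artefact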;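 note: 50 nL library stock added to about 25 µL; numbers are from one replicate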
# ugtP null kill: growth inhibition of ugtP-null S. aureus, primary screen, RN4220 ugtP deletion, OD600. 16 h; some inactives read as strong as hits. growth inhibition, % (concentration not given with the values). AID 1259309, 2017. actives 0.54% (n = 330,000);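 active = z-score under -3 and OD600 up to 0.15 on both plates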;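 note: plate controls were untreated wells for no effect and antibiotic for full effect; wells of about 80 µL received 100 nL stock; the first replicate is given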
# PrP UTR inh: inhibition of PrP 5' UTR reporter expression; cell-based PrP 5' UTR mRNA reporter, plate reader; inhibition, % (test concentration not listed); actives 0.35% (n = 340,000); AID 488862, 2010;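 active = every replicate at 50% or more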;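 note: 0 = median of the neutral control wells; tested in H4 reporter cells; numbers are from one replicate; inactives centre near -14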
# Mtb hypoxia rep: PubChem AID 1159583. M. tuberculosis hypoxia-regulated fluorescent reporter, fluorescence. fluorescence inhibition, % (concentration not given with the values). actives 0.1% (n = 300,000);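 active = 35 to 45% if threefold the growth effect, above 45% if 1.5-fold the growth effect; inactive = the rest, general growth blockers included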;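 note: wells of about 50 µL received 100 nL stock; 0% = vehicle wells and 100% = reference inhibitor wells; whole bacteria with a GFP reporter of the hypoxia response; strong numbers were not always called active; many hits fall short of the cut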
# Sa RN4220 lethal: growth inhibition of S. aureus RN4220, primary screen, OD600 | 16 h | inhibition, % (no concentration beside the values) | actives 0.33% (n = 330,000) | AID 1259311, 2017;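 active = z-score of -3 or lower and OD600 up to 0.18 on both plates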;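 note: plate controls were untreated cells for no effect and reference antibiotic for full effect; stock transfer was 100 nL into about 80 µL; one replicate is shown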
# Autofluor counter: compound fluorescence in toxin protease inhibitor counterscreen; compound autofluorescence counterscreen, microsphere flow cytometry; stronger effect = higher value; fluorescence intensity (concentration not given with the values); actives 3.1% (n = 360,000);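 active = at least 3 SD above the mean of all compounds, about 16000 in these data; inconclusive = too few beads counted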;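 note: 100 nL of 1 mM stock went into each well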
# Mtb hypoxia rep growth: second read-out of Mtb hypoxia rep, no call of its own (marks repeat the call); growth inhibition, %; measured here: M. tuberculosis growth (absorbance);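 0% = vehicle and 100% = reference antibiotic; read after six days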
# * marks the source's active call; other numbers are inactive results; ? = inconclusive; . = not tested or not shown.
# Value order: BJeLR viability	ugtP null kill	PrP UTR inh	Mtb hypoxia rep	Mtb hypoxia rep growth	Sa RN4220 lethal	Autofluor counter
> Cn1cnnc1SCC(=O)c1ccc2c(c1)NC(=O)CO2
 : .	4.6	-13.6	8.8	8.1	6.5	4632
> COc1ccc(NC(=O)Nc2c(C)n(-c3ccccc3)c(=O)n2C)cc1OC
 : -6.9	4.5	-23.6	-3.3	2.2	4.1	3343
> CCC(C)C(NC(C)=O)C(=O)NC(=O)NC(c1ccccc1)c1ccccc1 (stereo not given)
 : -2.6	-6.3	-15.7	5.4	-10.5	-6.9	8455
> Nc1nc(N)c2[nH]c(-c3ccccc3)nc2n1
 : -4.4	12.4	7.6	13.3	2.3	4.6	3742
> CCCCCOc1ccc(C(O)C(CN2CCOCC2)c2ccccc2)cc1 (stereo not given)
 : 10.6	.	-18.9	.	.	.	4053
> O=C(O)c1ccc(S(=O)(=O)NCC2CCCO2)cc1 (stereo not given)
 : -9.0	5.4	-11.4	7.2	2.5	5.5	3637
> Cc1ccc(CC(=O)O/N=C(\N)c2cccc([N+](=O)[O-])c2)cc1
 : 2.9	14.8	-21.4	-5.2	7.6	2.8	2006
> CC(C)(C)OC(=O)NN1CC(=O)N2Cc3ccccc3C[C@@H]2C1=O
 : 6.1	-0.8	-6.0	-2.4	9.0	2.7	3963
> COc1ccccc1N1CCc2c(C)nc3c(OC)cccc3c21
 : -0.4	-0.3	-21.5	6.9	14.0	3.7	22775*
> CCOc1ccc(-c2nnc(NC(=O)c3ccc(OCC(C)C)c(OC)c3)o2)cc1
 : 0.8	81.1	-0.4	3.5	4.2	55.7	3297
> Cc1nc(SCc2ccc(Cl)cc2)ncc1C(=O)O
 : 2.7	3.6	-26.3	-2.8	-3.8	20.8	4582
> O=C(CNC(=O)c1cccc(F)c1)OCc1cc(=O)n2cc(Br)ccc2n1
 : -1.5	7.8	-14.5	0.3	-11.7	3.0	10980
> CC(NC(=O)C(=O)NN=C1CCCCCCC1)c1ccccc1 (stereo not given)
 : -13.9	4.6	-7.5	6.7	10.1	1.9	3921
> NC(=S)NN=C1c2cc(OCCN3CCOCC3)ccc2-c2ccc(OCCN3CCOCC3)cc21
 : 6.2	7.7	-37.8	12.3	5.6	7.8	4071
> CC(Sc1nc2ccccc2c(=O)n1C)C(=O)N(C)C1CCCCC1 (stereo not given)
 : 16.6	-10.1	-9.4	7.5	-2.0	0.8	5644
> O=C(OCC(=O)N1CCC(Cc2ccccc2)CC1)c1ccc[nH]c1=O
 : -10.1	-3.9	-7.3	10.8	4.7	-13.4	2477
> Clc1ccc(-n2nnnc2CN2CCOCC2)cc1Cl
 : -2.7	5.8	-33.6	3.9	14.4	4.4	2551
> CCn1c(=O)c(C(=O)Nc2ccccn2)c(O)c2ccccc21
 : -9.6	19.8	-43.6	0.0	-6.7	9.9	4752
> CCn1nnnc1SCC(=O)N1N=C(c2cccs2)CC1c1cccs1 (stereo not given)
 : .	1.1	-17.3	8.9	4.4	2.0	6448
> Cc1ccc(NC(=O)C2CC(=O)NC(N3CCCCC3)=N2)cc1Cl (stereo not given)
 : -6.2	2.3	-18.8	6.9	9.0	1.9	4048
> CCN(CC(=O)NCc1cccs1)C(=O)CCOc1ccccc1C
 : -1.2	3.2	-7.2	-0.3	0.9	3.6	4548
> COCCNC(=O)Cn1c(=O)n(Cc2ccco2)c(=O)c2ccccc21
 : 0.3	-0.8	-13.6	4.7	7.3	3.5	8103
> CC(=O)c1c(C)[nH]c(C(=O)OCc2cc(=O)n3cc(Br)ccc3n2)c1C
 : .	2.9	-18.1	6.3	4.8	2.2	9029
> CCOc1ccc(/C=C/C(=O)Oc2ccccc2)cc1
 : -7.8	13.9	-25.8	5.7	-1.5	11.8	3496
> Cc1ccc(CN2CCN(N=Cc3cccc([N+](=O)[O-])c3)CC2)cc1
 : .	12.2	.	4.6	-0.5	4.9	.
> CC(C)C(NS(=O)(=O)c1cccs1)C(=O)NCc1ccccc1 (stereo not given)
 : 8.7	1.7	-17.8	10.1	2.9	2.7	5812
> Cc1csc(NC(=O)C2CCCN(S(=O)(=O)c3cccnc3)C2)n1 (stereo not given)
 : -10.1	7.9	-8.5	.	.	0.7	4529
> CSCCC(NS(=O)(=O)c1ccc(Cl)cc1)C(=O)OCc1c(Cl)cccc1Cl (stereo not given)
 : -9.5	-20.1	-11.0	8.5	7.8	3.8	2030
> O=C(Cc1ccc(Cl)cc1)NN1C(=O)c2ccccc2C1=O
 : -9.5	4.6	-34.7	7.1	4.6	4.4	1927
> CCN(CC)S(=O)(=O)c1ccc(N2CCOCC2)c(NC(=O)c2ccc(NC(C)=O)cc2)c1
 : 11.3	1.8	-14.3	-6.7	-5.4	2.2	.
> Cc1ccc2[nH]c3c(=O)n(CC(=O)NCCc4ccc(Cl)cc4)ncc3c2c1
 : 11.1	10.2	-20.4	0.6	8.0	3.5	5714
> CCCCN1C(=O)c2ccc(C(=O)Nc3cccc(C)c3C)cc2C1=O
 : 0.6	8.5	-6.7	.	.	3.8	2356
> Cc1ccccc1Nc1c(-c2ccncc2)nc2ccc(Br)cn12
 : -11.6	-14.9	-11.1	-2.7	-18.5	-3.1	2853
> CCOC(=O)c1cc(S(=O)(=O)N2CCCC2)cn1C
 : 6.9	5.2	-8.7	-1.3	-3.2	0.6	5802
> COC(=O)c1ccc(Oc2coc3cc(OCc4cnn(-c5ccccc5)c4)ccc3c2=O)cc1
 : -13.3	5.1	-18.0	.	.	2.6	4085
> Cc1cccc(OCCC(=O)Nc2cc(S(=O)(=O)N3CCCCC3)ccc2N2CCOCC2)c1
 : 1.2	4.0	-9.3	13.8	12.4	1.7	4417
> Cc1cc(NC(=O)CSc2nc3ccccc3c(=O)n2-c2ccccc2)no1
 : 2.9	-0.4	-4.6	-1.1	10.1	3.1	4341
> COc1ccc(CCNC(=O)CON=Cc2cc3c(cc2Br)OCO3)cc1OC
 : .	-69.2	.	7.5	-2.2	8.2	.
> CCN(CC)CCNc1c2c(c(C#N)c3nc4ccccc4n13)CCCC2
 : 2.1	-1.8	-21.3	1.1	0.5	0.9	2931
> COc1ccc2[nH]c(=O)c(CN(CCc3ccccc3)C(C)=O)cc2c1
 : -9.9	-3.7	-3.7	6.1	3.2	1.7	22156*
> CC1CN(C(=O)c2ccc(OC3CCN(Cc4ccccn4)CC3)cc2)CCN1C (stereo not given)
 : 9.6	.	-7.3	.	.	.	6923
> CN(CCc1ccccc1)C(=O)c1cccc(NC(=O)Cc2cccc(NC(=O)C3CCCN(S(=O)(=O)c4cccc([N+](=O)[O-])c4)C3)c2)c1 (stereo not given)
 : .	-1.4	-7.8	-1.4	7.0	2.3	4254
> Cc1ccc(S(=O)(=O)N2CCC(C(=O)OCC(=O)N(CCC#N)c3ccc(F)cc3)CC2)cc1C
 : 4.6	4.6	-8.1	12.6	4.4	-1.1	4950
> CCc1ccc(CN(C)C(C)C(=O)NCc2ccccc2)cc1 (stereo not given)
 : -3.7	18.6	.	1.7	-3.5	5.5	3813
> CCCn1c2c(c(O)c(C(=O)Nc3ncccc3O)c1=O)CCCC2
 : 2.1	-12.4	-12.5	23.8	6.6	-0.2	2454
> CC(NC(N)=O)C(=O)Nc1ccc(Cl)c(S(=O)(=O)Nc2ccc(Cl)cc2)c1 (stereo not given)
 : -5.4	-5.1	-21.8	7.4	8.9	0.7	3253
> Cn1nnnc1Sc1ncnc2scc(-c3ccc4c(c3)OCO4)c12
 : .	-10.5	9.0	12.2	12.1	4.5	3592
> Cc1ccc2cc(CN(Cc3nnnn3C3CCCCC3)CC3CCCO3)c(=O)[nH]c2c1 (stereo not given)
 : -3.3	-0.1	-18.5	3.2	4.1	2.3	7681
> O=C(Cc1n[nH]c(=O)[nH]c1=O)N/N=C/CCc1ccccc1
 : -1.2	.	-12.7	.	.	.	4650
> Cc1cccc(C)c1NC(=O)CN1CCN(CCCC(c2ccc(F)cc2)c2ccc(F)cc2)CC1
 : .	3.8	-8.4	11.9	-1.5	-5.2	5856
> CC1CCCCN1Cc1cnc(Cl)s1 (stereo not given)
 : -5.0	3.1	-14.9	.	.	2.7	4435
> O=C(COC(=O)c1ccc2c(c1)S(=O)(=O)N=C1CCCCCN12)NCCc1ccc(F)cc1
 : -7.9	4.6	-12.0	2.5	-1.1	2.0	4358
> CN(Cc1ccccc1)Cc1nc2c(c(=O)n(C)c(=O)n2C)n1Cc1ccccc1Cl
 : -5.1	-0.3	-2.3	-5.7	5.7	3.4	10646
> O=C(CCN=C1NS(=O)(=O)c2ccccc21)OCC(=O)c1ccccc1
 : -9.9	1.5	-8.2	2.2	-9.3	1.6	?
> C(=NNc1ccccc1)c1ccc(N2CCOCC2)cc1
 : .	-3.4	.	-5.5	3.2	3.7	.
> Cc1cc2nc(C)c(Cl)c(=O)n2[nH]1
 : 5.4	-0.6	-37.7	8.6	1.7	5.2	3999
> [O-]/C(=C(\C(=S)NCc1ccccc1)[n+]1ccccc1)c1ccc(Cl)s1
 : .	8.6	-8.3	7.9	6.8	0.5	5548
> Cc1ccccc1NC1=C/C(=N\S(=O)(=O)c2ccc(C(=O)O)cc2)c2ccccc2C1=O
 : 15.1	-4.2	-87.6	-0.2	9.1	5.0	5812
> CCN1C(=O)N(c2ccc(Cl)cc2)C(C)=CC1(C)C
 : -4.4	-5.9	-12.1	.	.	5.3	2746
> COc1ccc(CNC(=O)CN2C(=O)c3ccccc3C2=O)cc1
 : -4.7	-0.4	-31.9	11.7	-3.8	0.6	3710

# (cont.)
# Value order: BJeLR viability	ugtP null kill	PrP UTR inh	Mtb hypoxia rep	Mtb hypoxia rep growth	Sa RN4220 lethal	Autofluor counter
> CC1=C(C(=O)Nc2ccccc2)C2(CCCCC2)C(C#N)=C(SCC(N)=O)N1
 : -2.0	9.9	-17.4	.	.	8.3	2414
> CCN(CC)CC(=O)Nc1ccc(Oc2ccc(NC(=O)CN(CC)CC)cc2)cc1
 : 7.1	-3.1	-32.8	0.6	4.9	2.0	4276
> O=C(/C=C/c1ccccc1)NC(NC(=S)Nc1cccc(O)c1)C(Cl)(Cl)Cl (stereo not given)
 : 5.6	18.2	-16.1	5.3	7.0	-16.0	10290
> Cc1ccc(S(=O)(=O)N(C)/N=C2/C(=O)N(CC(=O)O)c3ccccc32)cc1
 : 7.7	.	-29.9	.	.	.	4283
> CNC(=O)c1cc(C)c(-c2ccccc2)s1
 : -9.6	2.6	-34.2	11.4	7.7	6.0	15728
> CCOc1ccc(N2C(=O)CS/C2=N/NC(=O)COc2ccc3ccccc3c2)cc1
 : -2.2	.	-26.3	.	.	.	7132
> COC(=O)C1=C(C)NC(=O)C1(NS(=O)(=O)c1ccc(C)cc1)C(F)(F)F (stereo not given)
 : 2.6	1.1	.	0.3	13.1	1.3	10602
> Cc1ccc(C=Nn2c(C3CCCCC3)n[nH]c2=S)cc1
 : .	-2.3	.	13.9	5.1	3.5	.

# Looked up one by one from above (four):
# Value order: BJeLR viability	ugtP null kill	PrP UTR inh	Mtb hypoxia rep	Mtb hypoxia rep growth	Sa RN4220 lethal	Autofluor counter
> Cc1ccc(S(=O)(=O)N(C)/N=C2/C(=O)N(CC(=O)O)c3ccccc32)cc1
 : 7.7	.	-29.9	.	.	.	4283
> CCOc1ccc(N2C(=O)CS/C2=N/NC(=O)COc2ccc3ccccc3c2)cc1
 : -2.2	.	-26.3	.	.	.	7132
> O=C(/C=C/c1ccccc1)NC(NC(=S)Nc1cccc(O)c1)C(Cl)(Cl)Cl (stereo not given)
 : 5.6	18.2	-16.1	5.3	7.0	-16.0	10290
> COC(=O)C1=C(C)NC(=O)C1(NS(=O)(=O)c1ccc(C)cc1)C(F)(F)F (stereo not given)
 : 2.6	1.1	.	0.3	13.1	1.3	10602

# Four compounds from above, reduced to BJeLR viability, Autofluor counter and Sa RN4220 lethal.
Structure,BJeLR viability,Autofluor counter,Sa RN4220 lethal
CNC(=O)c1cc(C)c(-c2ccccc2)s1,-9.6,15728,6.0
CCOc1ccc(N2C(=O)CS/C2=N/NC(=O)COc2ccc3ccccc3c2)cc1,-2.2,7132,.
COC(=O)C1=C(C)NC(=O)C1(NS(=O)(=O)c1ccc(C)cc1)C(F)(F)F (stereo not given),2.6,10602,1.3
Cc1ccc(C=Nn2c(C3CCCCC3)n[nH]c2=S)cc1,.,.,3.5

# Compound activity (PubChem)
